# Compound activity deposited in PubChem by several laboratories.
# Hck Nef HTS – blocks Nef-activated human Hck kinase; inhibition, % at 20 µM; 0.68% of 220,000 active; P08631; Recombinant Hck-YEEI plus Nef, Z-Lyte FRET kinase assay;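 active = Hck-Nef kinase inhibition above about 50%, limit read from the data; inactive = inhibition below that limit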;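 also: 0% = DMSO with Hck plus Nef and 100% = Hck alone without Nef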
# Target sequence (P08631 whole entry, looked up): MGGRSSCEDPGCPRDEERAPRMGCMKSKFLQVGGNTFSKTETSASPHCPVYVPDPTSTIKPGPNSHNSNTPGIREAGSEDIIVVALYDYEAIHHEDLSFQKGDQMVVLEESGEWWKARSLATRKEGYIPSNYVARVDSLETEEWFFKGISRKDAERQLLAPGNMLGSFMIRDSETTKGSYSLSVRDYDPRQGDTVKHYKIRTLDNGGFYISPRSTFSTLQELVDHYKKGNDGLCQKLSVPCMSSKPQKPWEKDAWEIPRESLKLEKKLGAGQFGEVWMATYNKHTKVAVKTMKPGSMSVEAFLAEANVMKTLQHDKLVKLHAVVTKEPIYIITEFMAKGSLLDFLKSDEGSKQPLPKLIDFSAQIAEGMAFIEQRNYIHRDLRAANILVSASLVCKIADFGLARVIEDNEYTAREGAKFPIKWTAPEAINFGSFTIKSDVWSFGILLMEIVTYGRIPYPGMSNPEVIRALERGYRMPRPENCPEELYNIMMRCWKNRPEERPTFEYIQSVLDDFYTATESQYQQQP
# TNF necrop inh – blocks TNF-alpha induced death of Jurkat FADD-/- cells; Jurkat FADD-/- TNF necroptosis rescue, ATP luminescence, 24 h; 0 = TNF only, 100 = no-TNF cells; activation (protection from cell death), % at 10 µM; 0.068% of 220,000 active; AID 463075;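 active = activation, meaning protection from cell death, of at least 50% relative to plate controls; inactive = activation below 50%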;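 also: necroptosis triggered by 40 ng/mL TNF-alpha added together with compound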
# RBBP9 inh – blocks human serine hydrolase RBBP9. recombinant RBBP9, FP-Rh probe fluorescence polarization. inhibition, % at 7.94 µM. 0.2% of 220,000 active. AID 1515;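 active = inhibition above the campaign mean of all tested compounds plus 3 SD, cut at about 14% in these data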;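 also: plate controls were DMSO wells with RBBP9 for no effect and wells lacking RBBP9 protein for full effect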
# Target sequence (O75884 whole entry, looked up): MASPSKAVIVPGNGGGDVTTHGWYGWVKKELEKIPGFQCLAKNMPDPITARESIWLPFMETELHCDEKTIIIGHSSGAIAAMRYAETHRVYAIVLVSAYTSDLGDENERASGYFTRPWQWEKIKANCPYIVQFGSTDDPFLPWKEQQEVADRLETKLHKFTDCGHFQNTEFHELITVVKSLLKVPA
#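 Assay system: recombinant human RBBP9; Reagent: Serine-hydrolase probe FP-Rh, 375 nM pre-mixing; Doses: 7.94 µM single dose, 0.794% DMSO; Incubation: 30 min then 45 min, 25 °C; Detection: fluorescence polarization (mP), excitation 525 nm, emission 598 nm; Evaluation: percent inhibition from mP, scaled between DMSO and no-protein wells.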
# PGE2 EP2 inh – inhibitors of human EP2 prostaglandin E2 receptor | P43116 | C6 glioma cells expressing human EP2, cAMP TR-FRET; cells stimulated with saturating PGE2 | inhibition, % at 25 µM | 0.52% of 260,000 active | AID 1422;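 active = percent inhibition above 40 after rounding to a whole number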;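 also: rat C6 glioma host cells with rolipram phosphodiesterase inhibitor present; the protocol text gives 20 µM as final concentration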
# Target sequence (P43116 whole entry, looked up): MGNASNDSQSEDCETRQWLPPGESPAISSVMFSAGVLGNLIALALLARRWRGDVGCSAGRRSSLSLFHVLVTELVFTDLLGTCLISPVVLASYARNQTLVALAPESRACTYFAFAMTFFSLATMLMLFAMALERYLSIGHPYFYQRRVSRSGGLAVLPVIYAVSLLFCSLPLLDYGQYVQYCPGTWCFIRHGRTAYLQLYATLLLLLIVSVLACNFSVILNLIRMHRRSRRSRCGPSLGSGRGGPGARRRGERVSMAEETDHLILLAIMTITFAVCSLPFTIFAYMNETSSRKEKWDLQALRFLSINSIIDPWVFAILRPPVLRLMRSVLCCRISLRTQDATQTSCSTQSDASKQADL
# PERK inhibitor – inhibitors of human PERK kinase. AID 1416. 0.17% of 220,000 active. CHO PERK-DD fusion, SEAP luminescence translation reporter. inhibition, % at 5.6 µM. Q9NZJ5;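 active = inhibition above the mean inhibition of all tested compounds plus 3 SD, set separately per screening campaign, cut at about 2.9% in these data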;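 also: PERK kinase domain activated by AP20187 dimerizer at 100 nM; 0% = DMSO with dimerizer and 100% = rapamycin at 8.4 µM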
# EP2 modulator – modulates human prostaglandin E2 receptor EP2 signaling. P43116. EP2-expressing cells, cAMP HTRF FRET, PGE2 co-stimulation. induction, % at 25 µM. 0.83% of 260,000 active;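 active = compounds whose cAMP rise, as percent of the full-agonist control response, exceeds 60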;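 also: rat C6 glioma line stably carrying human EP2 under a CMV promoter; the protocol text gives 20 µM as final concentration; 100% = response of wells given 1 µM PGE2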
# L929 necroptosis – blocks zVAD induced death of L929 cells. L929 zVAD necroptosis rescue, ATP luminescence, 24 h; with zVAD 60 µM. viability rescue, % at 10 µM. 0.38% of 220,000 active. AID 1377;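 active = activation, scaled between plate controls, above about 75%, limit read from the data; inactive = activation under that limit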;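 also: 0% = zVAD with DMSO and 100% = DMSO alone without zVAD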
# An asterisk follows results filed as active; . = not tested or not shown; & = joins results of further samples. Not all compounds are listed; count on the stated rates, not on these rows.
SMILES,Hck Nef HTS,TNF necrop inh,RBBP9 inh,PGE2 EP2 inh,PERK inhibitor,EP2 modulator,L929 necroptosis
COC(=O)CSc1nc(C)cc(C(F)(F)F)c1C#N,0,-2.8,-3,10,0.5,4,0.0
Cc1cccc(/C=N/n2c(C)nnc2C)c1,1,-0.6,0,9,3.1*,5,-0.1
Cc1cccc(Cn2cnc3c(nnn3Cc3ccc(Cl)cc3)c2=O)c1,0,0.8,-6,5,-0.1,17,1.1
O=C(Nc1ccc(Cl)cc1)OCc1cn(-c2ccc(Cl)cc2)nn1,0,-2.7,-4,5,0.7,-20,0.0
CCOc1ccc(NC(=O)c2nnn(CC(=O)Nc3ccccc3OC)c2N)cc1,0,1.5,4,13,-0.4,-18,0.1
Cc1oc2cc(O)ccc2c(=O)c1-c1cnn(-c2ccccc2)c1,-1,0.0,3,20,0.9,-20,0.2
COCCCNC(=O)CC(NS(=O)(=O)c1ccc(C)cc1)c1ccc(OC)cc1 (stereo not drawn),0,0.9,-1,0,-0.7,-1,0.3
CSc1nc(N2CCOCC2)c2c3c(sc2n1)CCC3,20,-1.8,1,8,-0.9,8,-1.6
COc1ccc(C2CC(=O)C(C=NCCN3CCOCC3)=C(O)C2)cc1 (stereo not drawn),-1,0.8,-3,12,0.6,-22,0.9
Cc1cc([N+](=O)[O-])c2[nH]c(C(=O)N/N=C/c3ccccc3C(=O)O)c(-c3ccccc3)c2c1,1,-2.7,-3,.,0.3,39,0.3
CC(=O)OCP(C)(=O)COC(C)=O,-1,-2.0,-2,5,0.2,25,-0.6
Cc1cc2ccccc2n1CCNC(=O)c1ccccc1,1,-0.6,-5,10,-0.3,-56,0.0
COC(=O)C1C(O)CCC2CN3CCc4c([nH]c5ccccc45)C3CC21 (stereo not drawn),12,1.8,.,19,.,16,0.6
COCc1nnc(NC(=O)CSc2ccc(C)cc2)s1,1,0.7,-2,12,-0.5,0,0.2
Nc1nc2ccccc2nc1N1CCCC1,1,0.2,-3,9,0.8,12,0.1
N#Cc1nc(-c2cccs2)oc1NCc1ccccc1,1,1.1,-1,10,-0.2,-27,0.6
Cc1ccc(S(=O)(=O)n2nc(C)c(Br)c2C)c(C)c1C,-1,-4.6,1,9,-0.2,14,-0.3
O=S(=O)(NC1CCCCC1NCc1ccco1)c1ccc(Cl)cc1 (stereo not drawn),3,-2.6,-4,-2,0.3,0,-0.1
Cc1ccc(NS(=O)(=O)c2ccc(NC(=O)c3cccc(NC(=O)C(C)C)c3)cc2)cc1,-2,-8.2,-55,3,0.5,-30,0.6
Cc1ccnn1CC(=O)N/N=C/c1ccco1,0,-0.4,-4,4,1.7,23,0.2
CC1CCN(CCCCOc2ccccc2[N+](=O)[O-])CC1,0,-0.9,-2,10,0.8,4,-0.2
COc1ccc(/C=N/NC(=O)Cc2csc(Nc3cccc(C(F)(F)F)c3)n2)cc1C,-1,-0.1,5,17,-0.8,-60,0.8
Cc1cc(C(=O)N/N=C/C=C/c2ccc3c(c2)OCO3)n[nH]1,0,12,-6,18,0.2,-21,6.0
CNC(=O)/C(C#N)=c1\s/c(=C/C(=O)OC)c(=O)n1-c1ccccc1,0,0.2,-7,8,0.8,6,-0.2
COc1ccc(CCNC(=O)c2ccc(CS(=O)(=O)c3ccc(Cl)cc3)o2)cc1OC,-1,-1.6,2,15,0.5,-34,1.0

# Following part:
SMILES,Hck Nef HTS,TNF necrop inh,RBBP9 inh,PGE2 EP2 inh,PERK inhibitor,EP2 modulator,L929 necroptosis
CCSc1nnc(NC(=O)CSc2nnc(Cc3cccn3C)n2-c2ccc(C)cc2)s1,6,-0.1,-1,6,0.0,6,0.0
COc1cc2c(cc1OC)C(C(=O)NCc1cccnc1)C(c1cccnc1)N(C)C2=O (stereo not drawn),1,0.1,-5,12,0.6,-11,1.7
Cc1cc(C)nc(/N=C(\N)Nc2ccc(F)c([N+](=O)[O-])c2)n1,0,7.7,-5,8,0.5,-9,-0.1
CN1CCc2c(c3ccccc3n2Cc2ccccc2)C1,1,-1.1,2,8&10&11,0.1,-20&-53&20,-1.0
O=C1CCCC2=C1C(c1ccc(Cl)cc1)C1C(=O)c3ccccc3C1=N2 (stereo not drawn),1,-7.8,-4,18,-0.6,-5,-0.1
Cc1ccc(S(=O)(=O)Nc2nc(C)cc(NCCN)n2)cc1,0,-3.1,-6,19,1.4,10,-0.2
COc1cc(C2/C(=C(/O)c3ccc(F)cc3)C(=O)C(=O)N2CCCC(=O)O)ccc1O (stereo not drawn),-5,1.1,-5,1,0.4,-2,0.1
CCSc1nc2nc(C)cc(C)n2n1,1,-0.1,-7,10,0.3,6,-0.1
COc1ccccc1Oc1ccc2c(c1)C(=O)N(c1ccc(C)cc1)C2=O,-1,-0.1,-13,.,0.5,40,-0.2
COc1ccc(CNC(=O)Cc2c(C(=O)O)[nH]c3ccccc23)cc1,0,0.0,0,2,0.5,16,0.2
CCN(CC)CCN1C(=O)C(=O)/C(=C(/O)c2cccc(OC)c2)C1c1ccccn1 (stereo not drawn),2,0.8,-5,8,-0.1,9,0.2
N#CC1=C(N)Oc2c(oc(CO)cc2=O)C12C(=O)Nc1ccc(Cl)cc12 (stereo not drawn),-2,1.0,4,3,0.8,28,3.2
CCOC(=O)c1[nH]c2ccc(OC)cc2c1NC(=O)NC(C)C,1,-0.4,-5,14,0.5,-4,0.3
COc1ccccc1C(=O)NNC(=O)c1nn(Cc2ccccc2)c(=O)c2ccccc12,21,2.5,-5,2,0.3,24,0.9
CC1CCN(CC(C)CNC(=O)c2cc(-c3ccccn3)nc3ccccc23)CC1 (stereo not drawn),0,-4.0,-1,7,-0.8,5,0.0
CC(=O)NC(=S)Nc1ccc(-c2nc3ccc(C)cc3s2)cc1,2,-1.7,-10,34,0.3,-8,0.0
Cc1cccc2c1OCC/C2=N\NC(=O)COc1ccccc1Cl,1,-2.2,1,6,0.4,6,0.2
Cc1ccc(-c2noc(CN(C(=O)C34CC5CC(CC(C5)C3)C4)C(C)C)n2)cc1,2,-0.2,12,5,0.5,27,1.6
COc1ccc(C(=O)N/C(=C\c2cccs2)c2nc3ccccc3[nH]2)cc1OC,7,-5.3,-5,7,-1.5,-47,0.7
Cc1nnc(N(C)C(=O)c2ccccn2)s1,2,-0.7,-4,12,0.8,20&8,0.2
Cc1ccc(NC2=C(C(=O)c3ccccc3)N(C)S(=O)(=O)c3ccccc32)cc1,-1,-4.4,0,20,0.1,66*,-0.5
C[N+]1(CC(=O)Nc2ccc(F)cc2)CCN(C(=O)c2ccco2)CC1,1,0.2,-8,7,1.8,19,-0.3
CC1=CC(C)(C)N(C(=O)c2ccccc2)c2ccc(C)cc21,0,0.1,-3,.,0.2,12,0.6
O=C(Nc1cccc(Cl)c1)OCc1cn(-c2ccc(Cl)cc2)nn1,0,-1.7,-2,.,0.9,-34,0.1
C=CCNC(=O)c1ccccc1Cl,5,-0.1,4,4,1.6,-2,0.0

# The results go on.
SMILES,Hck Nef HTS,TNF necrop inh,RBBP9 inh,PGE2 EP2 inh,PERK inhibitor,EP2 modulator,L929 necroptosis
COc1ccc(CCNC(=O)c2cc(-c3cc(Cl)cc(Cl)c3)oc2C)cc1,0,-0.6,-6,10,-0.2,-52,1.0
Cc1ccc(NC(=O)N/C=C/c2ccc(Cl)cc2)cc1,2,-0.2,-9,.,0.3,-7,0.8
Cc1cc(NN)nc2ccc(Cl)cc12,22,-0.2,0,4,0.2,-4,5.2
Cc1ccc(S(=O)(=O)NCC(=O)OC(C)C(=O)Nc2ncc(Cl)cc2Cl)cc1 (stereo not drawn),-1,-0.9,8,7,1.9,24,-0.1
O=C(CSc1nnc(-c2cccnc2)o1)Oc1ccccc1,0,-2.8,-1,8,1.2,55,0.9
Cc1nnc(SCc2ccc(F)cc2Cl)s1,1,7.0,-3,9,0.1,1,0.8
N#Cc1c(Cl)nc(SCc2ccccc2)nc1-c1ccccc1,2,-1.8,-8,61*,1.5,16,1.0
CCn1c(NCc2cc(Br)ccc2NS(=O)(=O)c2ccc(C)cc2)nc2ccccc21,-1,-3.1,-9,15,0.7,0,0.1
Cc1occc1C(=O)NCc1ccccc1,-1,30,-1,8,1.3,16,0.9
COC(=O)C1=C(C)N=C2SC(C#N)=C(N)N2C1c1ccc(OC)cc1 (stereo not drawn),0,-2.8,-6,13,-0.5,-31,0.0
CCOc1ccccc1C(=O)N(Cc1cccs1)C1CCS(=O)(=O)C1 (stereo not drawn),0,-0.9,-8,21,0.0,-2,0.5
COc1ccc(/C=C/C(=O)NCc2c(C)nn(C)c2C)cc1COc1ccc(Br)cc1,-1,-0.8,-12,10,-0.8,-43,0.8
COc1ccc(CCNc2c(C)c(C)nc3ncnn23)cc1,1,-10,-4,8&8,-0.5,-8&-14,2.2
O=C(c1c(F)cccc1F)N1CCN(c2ccccc2F)CC1,1,-1.1,-8,21,1.1,6,1.5
O=C(Nc1ccc([N+](=O)[O-])cc1)/C(=C/c1cccc([N+](=O)[O-])c1)NC(=O)C1CCCCC1,1,-1.5,-2,8,-0.7,-10,0.1
O=S(=O)(c1cccc2nsnc12)N1CCN(c2ncccn2)CC1,0,-0.3,1,6,0.5,-1,-0.3
COc1ccc(Nc2nc(N)nc(CN(C)C3CCCCC3)n2)cc1,-1,1.8,-8,12,0.2,13,0.1
COc1ccc(NC(=O)CSc2ncnc3c2cnn3CCc2ccccc2)cc1,-1,4.5,-2,15,2.1,17,0.1
Cc1cccc(-n2ncc3c(NCCCN4CCCC4=O)ncnc32)c1,1,-1.0,-4,0,-0.2,-13,-0.1
COCc1cc(C)nc(OCC(=O)N/N=C/c2ccc(-c3cccc([N+](=O)[O-])c3)o2)c1C#N,1,-7.0,-11,.,-0.7,-40,-0.1
O=c1c2ccccc2nc(-c2ccc(Cl)cc2Cl)n1CCCn1ccnc1,-2,-0.1,-6,8,-0.4,1,0.1
O=C(COc1ccc(Cl)cc1)Nc1ccccc1CO,-2,0.3,-12,16,-0.3,-10,3.1
Cc1ccc(SCc2nc(-c3cccnc3)no2)cc1,-1,4.5,2,6,-0.8,-14,0.7
CCOC(=O)c1c(C)[nH]c(C(=O)COC(=O)c2ccccc2NC(=O)c2ccco2)c1C,0,-1.1,1,5,-0.5,16,0.0
Nc1cccnc1Sc1ccc(Cl)cc1,-1,10.0,-1,8,-0.6,4,0.1

# Among those listed so far, three have bromine:
SMILES,Hck Nef HTS,TNF necrop inh,RBBP9 inh,PGE2 EP2 inh,PERK inhibitor,EP2 modulator,L929 necroptosis
Cc1ccc(S(=O)(=O)n2nc(C)c(Br)c2C)c(C)c1C,-1,-4.6,1,9,-0.2,14,-0.3
CCn1c(NCc2cc(Br)ccc2NS(=O)(=O)c2ccc(C)cc2)nc2ccccc21,-1,-3.1,-9,15,0.7,0,0.1
COc1ccc(/C=C/C(=O)NCc2c(C)nn(C)c2C)cc1COc1ccc(Br)cc1,-1,-0.8,-12,10,-0.8,-43,0.8

# Next section:
SMILES,Hck Nef HTS,TNF necrop inh,RBBP9 inh,PGE2 EP2 inh,PERK inhibitor,EP2 modulator,L929 necroptosis
COc1ccc(S(=O)(=O)N2CCCN(CC(=O)Nc3ccc4c(c3)OCO4)CC2)cc1,0,-0.7,-2,.,-1.7,-36,-0.7
CCC(C)(C)n1nnnc1C(C(C)C)N(CCCO)Cc1cc2cc(C)ccc2[nH]c1=O (stereo not drawn),1,-2.4,-2,8,0.4,10,-0.1
CCOc1cc(/C=N/O)ccc1OS(=O)(=O)c1ccc(C)cc1,0,-7.9,-4,13,-0.1,-52,0.3
COC(=O)c1sc(=S)n(-c2ccccc2OC)c1N,0,-2.0,-4,6,1.1,13,0.1
Cc1ccc(NC(=O)c2c(C(F)(F)F)nn(C)c2Cl)cc1C,-1,-2.8,-6,2,-0.4,19,0.3
OCC1N=C(c2ccccn2)OC1c1ccccc1 (stereo not drawn),5,-0.3,3,8,1.7,20,-0.1
c1coc(CNc2ncnc3nc[nH]c23)c1,4,-0.3,-1,19&10,0.6,8&-24,9.9
